StopGo FLuc – Primary qHTS Assay for Foot and Mouth Disease Virus Antivirals against NCGC Sytravon and CBC Compound Libraries: Firefly Luciferase Signal. HEK cells with a luciferase reporter of 2A StopGo recoding. 0.23% of 120,000 active. Potency, µM (series often up to 57.5 µM), inactives show top-dose signal change, negative = less light; active = well fitted falling curve with a large enough effect; inconclusive = small, poorly fitted or top-dose-only effect; inactive = no such curve, though single readings can be large or run the other way; also: nearly all actives have a fitted effect of over 60% in size; overnight with compound
2A Renilla – Primary qHTS Assay for Foot and Mouth Disease Virus Antivirals against NCGC Sytravon and CBC Compound Libraries: Renilla Luciferase Signal; HEK cells with a luciferase reporter of 2A StopGo recoding; Potency, µM (series often up to 57.5 µM), inactives show at the highest dose signal change, negative = less light; 0.32% of 120,000 active; AID 1745857, 2022; active means well fitted falling curve with a large enough effect; inconclusive means small, poorly fitted or top-dose-only effect; inactive means no such curve, though single readings can be large or run the other way; also: nearly all actives have a fitted effect of over 55% in size; overnight with compound
* marks the source's active call; other numbers are inactive results; ? = inconclusive; [ ] = dose if it differs, or a comment. % is scaled to controls: 0 for no effect and ±100 for the full control effect; potency is read from the fitted curve at half-maximal effect.

SMILES	StopGo FLuc	2A Renilla
CCCCN(C)C(=O)c1cc2c(C)cc(C)c(C)c2[nH]1	-1%	39%[activator]
COc1ccccc1C(=O)Nc1ccc2oc(-c3cccc(F)c3)nc2c1	82%[activator]	1%
Cc1ccc(C(=O)N/N=C/c2ccc(Br)s2)cc1	208%[activator]	45%[activator]
COc1cc(/C=N/OCc2ccc(Cl)c(Cl)c2)cc(Cl)c1OC	84%	13%
N#Cc1nc(C2CC2)oc1N1CCN(Cc2cccc(F)c2F)CC1	-16%	-22%
Cc1ccccc1OC(=O)CSc1nnc(-c2cccs2)o1	190%[activator]	229%[activator]
CC(=O)c1ccc(NC(=O)Nc2ccc(Br)cc2C)cc1	14%	19%
COc1ccc(OC)c(NC(=O)Cn2nc3c(cc2=O)CCCC3)c1	5%	-4%
COc1ccc(-c2nc(Cn3c(SCc4ccccc4F)nc4ccncc43)c(C)o2)cc1OC	-8%	3%
COC(=O)CC(NC(=O)Cc1c(F)cccc1Cl)c1cccs1 (stereo not drawn)	-2%	21%
O=C(Cn1c(-c2cccs2)cc2ccccc21)N1CCN(c2ccc(F)cc2)CC1	-5%	-7%
COc1cc(Cl)c(C)cc1NC(=O)CSc1nc2c(c(=O)[nH]1)CCCC2	-10%	-9%
CCCc1cc(=O)oc2cc(C)cc(OCC(=O)NC3CC(C)(C)NC(C)(C)C3)c12	-19%	-19%
O=C(CSc1ncccn1)Nc1nc2cc3c(cc2s1)OCCO3	59%[activator]	-20%
FC(F)(F)Oc1ccc2c(c1)NC(c1ccncc1)=NC(c1cccs1)=N2	35%[activator]	20%
CCOCCCNC(=O)C1CCN(c2nc3ccc(C)cc3[nH]2)CC1	3%	-14%
O=C1CN(C(=O)c2cccc(Br)c2)C(c2ccccc2)c2cc(Cl)ccc2N1 (stereo not drawn)	-25%	127%[activator]
COc1ccc(-c2csc(CCn3nc(C)c4c(C(F)(F)F)cc(=O)[nH]c43)n2)cc1	20%	5%
Cc1nc2c3cccnc3nn2c(C)c1CCC(=O)NCc1ccc(Cl)cc1	4%	4%
COc1ccc(N2C(=O)CCC2(C)C(=O)NC2CCCC2)c(OC)c1 (stereo not drawn)	-13%	-7%
CC1(c2cccc3ccccc23)NC(=O)N(Cc2ncc(-c3ccccc3)o2)C1=O (stereo not drawn)	-16%	-12%
N#CCCN(C(=O)Cn1nc(C(=O)O)c2ccccc2c1=O)c1ccccc1	4%	-1%
O=C(Cn1c(=O)oc2cc(S(=O)(=O)N3CCCC3)ccc21)Nc1ccc(F)cc1F	42%[activator]	23%
CCOc1ccc(NC(=O)c2cc(CN3CCCC3)on2)cc1	11%	50%[activator]
COc1ccc(Nc2ccc3cc(S(=O)(=O)N4CCCC4)ccc3n2)cc1Cl	-6%	33%[activator]
OC[C@H]1O[C@@H](Oc2ccc(O)cc2)[C@H](O)[C@@H](O)[C@@H]1O	-4%	-2%
O=C(c1ccco1)N1CCN(C(=O)c2cnn(-c3cccc(F)c3)c2C2CCNCC2)CC1	-11%	-12%
O=c1c2c3c(sc2ncn1-c1ccccc1)CCCC3	98%[activator]	-8%
CCCNC(=O)c1c(NC(=O)c2ccccc2)sc2c1CCC(C(C)(C)C)C2 (stereo not drawn)	11%	4%
Cc1ccc2c(=O)cc(C(=O)Nc3sc4c(c3C(N)=O)CCCC4)oc2c1	-16%	-12%
CCOC(=O)c1ccc(NC2(c3ccccc3)C(=O)c3ccccc3C2=O)cc1	0%	6%
O=C(Cc1n[nH]c(=O)c2ccccc12)Nc1ccccc1O	29%	1%
COc1ccc(CNc2ncnc3c2c(-c2ccccc2)cn3-c2ccccc2)cc1	-12%	-11%
Cc1oc(-c2ccccc2)nc1CC(=O)Nc1ccc(N2CCCC2=O)c(Cl)c1	1%	-3%
CC(=O)c1c(C)[nH]c(C(=O)OC(C)c2nc(-c3ccccc3)no2)c1C (stereo not drawn)	?	28µM*
CCOc1ccc(CC(=O)NCCc2csc3nc(-c4ccccc4F)nn23)cc1	5%	31%[activator]
CCOc1ccc(/C=C/C(N)=O)cc1	107%[activator]	11%
CC(=O)NNC(=S)Nc1ccc(C(C)C)cc1	0%	8%
COc1ccc(CNC(=O)Cn2c(=O)oc3cc(S(=O)(=O)N4CCCCCC4)ccc32)cc1	?	?
O=C(NC1CCCCCC1)c1ccccn1	0%	7%
O=C(CCCc1nc2ccccc2s1)NC1CCCC1	0%	9%
Cc1cc(OCC(=O)NCCc2nc3ccccc3[nH]2)cc(C)c1Cl	-16%	-13%
CCN1CCSc2ccc(C(=O)NCc3ccc(OC(C)C)cc3)cc21	25%	63%[activator]
CCc1ccccc1NC(=O)CSc1nncn2c1cc1oc(C)cc12	34%[activator]	29%
CCCCN1C=C(OC(=O)c2ccc(OC)cc2)c2ccccc2S1(=O)=O	21%	10%
CCOC(=O)c1c(C)sc(-c2c(-c3cc(C)ccc3C)[nH]c3c2c(=O)n(C)c(=O)n3C)c1O	-19%	-11%
COc1cccc(-c2nn(C)c3sc(C(=O)NCCc4ccc(Cl)cc4)cc23)c1	5%	26%
CC(C)n1nccc1N(CC(=O)Nc1cccc(Br)c1)S(=O)(=O)c1ccccc1	-16%	75%[activator]
Cc1cccc(NC(=O)Cn2cnc(S(=O)(=O)N3CCCC3)c2)c1C	-9%	-11%
CC1(C)CC(=C2C3C=CC2C2C(=C4CC(C)(C)NC(C)(C)C4)C=CC32)CC(C)(C)N1 (stereo not drawn)	-18%	-12%
COc1ccc(CN2C(=O)N(c3ccc(F)cc3)C(=O)C2CC(=O)Nc2cc(OC)cc(OC)c2)cc1 (stereo not drawn)	-14%	-10%
CCCCCSc1nc2sc3c(c2c(=O)n1-c1ccccc1)CCN(C(C)=O)C3	11%	-3%
Cc1ccc2ncc(C(=O)c3ccc(C)c(C)c3)c(S(=O)(=O)c3ccccc3)c2c1	-12%	6%
CC1=C(C(=O)Nc2ccc(F)c(F)c2)C(c2ccccc2F)NC(=S)N1 (stereo not drawn)	-15%	-8%
CSc1cccc(Nc2cc(C(=O)NCCCN(C)c3ccccc3)c3ccccc3n2)c1	-4%	6%
CC(C)CCn1nc(C(=O)Nc2nccs2)c2ccccc2c1=O	14%	15%
COc1ccc(CNC(=O)Cn2c(=O)c3c(ncn3C3CCCC3)n(Cc3ccccc3)c2=O)cc1	35%[activator]	6%
CCOC(=O)c1cc(-c2ccc(F)cc2)n(CCC(=O)Nc2nc3cc(C)c(C)cc3s2)c1C	-9%	-8%
Cc1ccc2c(Cn3nnc(-c4cccc(Cl)c4)n3)cc(=O)oc2c1	5%	0%
Cc1ccc(N2CC(c3nc4ccccc4n3CCN3CCOCC3)CC2=O)cc1Cl (stereo not drawn)	-14%	-2%

Quoted at random: 6 records from the list, in no set order.
SMILES	StopGo FLuc	2A Renilla
Cc1ccc(N2CC(c3nc4ccccc4n3CCN3CCOCC3)CC2=O)cc1Cl (stereo not drawn)	-14%	-2%
CCc1ccccc1NC(=O)CSc1nncn2c1cc1oc(C)cc12	34%[activator]	29%
COc1ccc(CNC(=O)Cn2c(=O)c3c(ncn3C3CCCC3)n(Cc3ccccc3)c2=O)cc1	35%[activator]	6%
CCCCN1C=C(OC(=O)c2ccc(OC)cc2)c2ccccc2S1(=O)=O	21%	10%
CC(C)n1nccc1N(CC(=O)Nc1cccc(Br)c1)S(=O)(=O)c1ccccc1	-16%	75%[activator]
CCN1CCSc2ccc(C(=O)NCc3ccc(OC(C)C)cc3)cc21	25%	63%[activator]

The listing picks up, starting 7 compounds before the break.
SMILES	StopGo FLuc	2A Renilla
CC1=C(C(=O)Nc2ccc(F)c(F)c2)C(c2ccccc2F)NC(=S)N1 (stereo not drawn)	-15%	-8%
CSc1cccc(Nc2cc(C(=O)NCCCN(C)c3ccccc3)c3ccccc3n2)c1	-4%	6%
CC(C)CCn1nc(C(=O)Nc2nccs2)c2ccccc2c1=O	14%	15%
COc1ccc(CNC(=O)Cn2c(=O)c3c(ncn3C3CCCC3)n(Cc3ccccc3)c2=O)cc1	35%[activator]	6%
CCOC(=O)c1cc(-c2ccc(F)cc2)n(CCC(=O)Nc2nc3cc(C)c(C)cc3s2)c1C	-9%	-8%
Cc1ccc2c(Cn3nnc(-c4cccc(Cl)c4)n3)cc(=O)oc2c1	5%	0%
Cc1ccc(N2CC(c3nc4ccccc4n3CCN3CCOCC3)CC2=O)cc1Cl (stereo not drawn)	-14%	-2%
CCN(CC)CCCNc1oc(-c2ccccc2F)nc1C#N	1%	-13%
COc1ccc(-c2cc(C(=O)NC3CCN(C)CC3)c3ccccc3n2)cc1OC	-8%	-6%
Cc1ccc(NC(=O)C2CC(=O)n3c(nc4ccccc43)N2)cc1 (stereo not drawn)	42%	17%
COc1ccc(Cl)cc1NC(=O)CSc1cn(CC(=O)N2CCCCC2)c2ccccc12	?	-3%
Cc1cccc(C(C)C)c1NC(=O)c1ccc2c(c1)CCN2S(C)(=O)=O	-19%	-2%
CCc1[nH]c(C(=O)OCC(=O)NC2CCCCC2)c(C)c1C(=O)OC	26%	21%
CCOC(=O)CNC(=O)c1cc(-c2ccc(C)s2)nc2ccccc12	46%[activator]	4%
Cc1ccc(CCNC(=O)c2cc(-c3ccccc3)n[nH]2)cc1	-8%	13%
CCC(C)C(=O)N(Cc1ccccn1)C1CC1 (stereo not drawn)	0%	9%
CC(C)NC(=O)CN(C)CC(=O)NC(=O)NCCC1=CCCCC1	7%	11%
CC(=O)c1cccc(NC(=O)c2cnn(-c3cccc(C)c3)c2-n2cccc2)c1	11%	13%
O=C(CSc1nnc(Cc2cccs2)n1C1CCCCC1)N1CCN(c2ccccn2)CC1	-6%	23%
CC(c1ccc(S(N)(=O)=O)cc1)N(C)C(=O)CCc1ncc(-c2ccccc2Cl)o1 (stereo not drawn)	-5%	6%
CC(=O)c1cccc(N2C(=O)CN(S(C)(=O)=O)CC2(C)C(=O)NC2CCCC2)c1 (stereo not drawn)	-7%	-7%
COc1ccc(NC(=O)c2oc3ccc(S(=O)(=O)N4CCOCC4)cc3c2C)c(OC)c1	9%	10%
CCc1ccc(C23CC4CC(CC(C4)C2)C3)cc1N	48%[activator]	3%
COC(=O)c1cc(Cl)c(NC(=O)/C=C/c2ccc(Cl)cc2Cl)cc1OC	0%	0%
COc1ccc(-c2onc3ccc(Br)cc23)cc1OC	42%[activator]	10%
CCOC(=O)c1ccc(NC(=O)CC2C(=O)OCCN2CC)cc1 (stereo not drawn)	-22%	-24%
CC(=O)Nc1ccc(S(=O)(=O)NCC2CCC(C(=O)NCCCOC(C)C)CC2)cc1 (stereo not drawn)	-8%	3%

A different layout for some results above.
Values run as follows: StopGo FLuc, 2A Renilla
- Cc1ccc(NC(=O)C2CC(=O)n3c(nc4ccccc43)N2)cc1 (stereo not drawn)
    42%, 17%
- COc1ccc(Cl)cc1NC(=O)CSc1cn(CC(=O)N2CCCCC2)c2ccccc12
    ?, -3%

New compounds follow.
SMILES	StopGo FLuc	2A Renilla
Cc1ccc(NCC(O)Cn2c3ccccc3n3c(=O)cc(C)c(C#N)c23)cc1Cl (stereo not drawn)	0%	1%
CCc1ccc(CNC(=O)C2CCN(c3nn4cc(-c5ccc(F)cc5)nc4s3)CC2)cc1	43%[activator]	-10%
CN(C)c1ccc(-c2nc3ccccn3c2Nc2ccc3c(c2)OCCO3)cc1	50%[activator]	12%
COc1cccc2cc(S(=O)(=O)c3ccc(Cl)cc3)c(=O)oc12	2%	-6%
COc1ccc2cc(CNc3ccc(C)cc3)c(=O)n(CC(=O)Nc3ccc(C)cc3C)c2c1	135%[activator]	12%
Cc1cccc(Nc2nc(-c3ccccc3)nc3ccccc23)c1	-18%	3%
CNC(=O)C(C)NC(=O)c1cn(Cc2ccccc2)c2ccccc12 (stereo not drawn)	3%	-6%
O=C(/C=C/c1ccco1)c1cccs1	16%	-3%

Source: PubChem BioAssay
